FGF22 binding = binders of human FGF22 protein, primary screen, FGF22 synaptogenesis inhibitor project, biophysical, thermal shift, single point | recombinant FGF22 thermal shift, SYPRO orange fluorescence; percent of sucrose octasulfate shift, DMSO zero | calls only at 9.99 µM | 340,000 tested, 1.5% active | AID 651658, 2012;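 active = melting point raised past a set limit in the mean and every replicate; three in four hits are not shown here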
Target sequence (Q9HCT0 whole entry, looked up): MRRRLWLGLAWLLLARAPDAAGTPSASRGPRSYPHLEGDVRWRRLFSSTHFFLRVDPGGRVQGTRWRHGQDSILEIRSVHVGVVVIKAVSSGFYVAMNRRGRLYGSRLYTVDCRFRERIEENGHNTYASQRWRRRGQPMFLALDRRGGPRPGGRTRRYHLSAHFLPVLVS
Calls only; i = inactive. An excerpt, so the mix of outcomes need not match the whole.

Compound | FGF22 binding
C[C@@H]1CN([C@@H](C)CO)C(=O)Cc2cc(NS(=O)(=O)c3cn(C)cn3)ccc2O[C@@H]1CN(C)S(C)(=O)=O | i
CCS(=O)(=O)Nc1ccc2c(c1)C(=O)N(C)C[C@H](OC)[C@@H](C)CN(C(=O)CN(C)C)[C@@H](C)CO2 | i
C[C@@H]1CN([C@H](C)CO)C(=O)c2cc(NC(=O)C3CCCCC3)ccc2O[C@@H](C)CCCCO[C@H]1CN(C)Cc1ccc(C(=O)O)cc1 | i
COc1ccc(CN(C)C[C@@H]2Oc3ccc(NC(=O)C4CCCCC4)cc3C(=O)N([C@H](C)CO)C[C@@H]2C)cc1 | i
COCC(=O)Nc1ccc2c(c1)[C@H]1C[C@H](CC(=O)NCc3ccccn3)O[C@@H](CO)[C@H]1O2 | i
CO[C@H]1CN(C)C(=O)c2cc(NC(=O)C3CC3)ccc2OC[C@H](C)N(Cc2ccc(F)cc2)C[C@@H]1C | i
C[C@H](CO)N1C[C@H](C)[C@@H](CN(C)CC2CCCC2)Oc2ncc(-c3ccc(F)cc3)cc2C1=O | i
CN1C(=O)c2cc(NC(=O)c3cccs3)ccc2OC[C@@H]2O[C@@H](CC(=O)N3CCCCC3)CC[C@H]21 | i
CCC(=O)N1CC2(C1)CN(C(=O)Nc1ccccc1F)[C@H](CO)c1c2c2ccc(OC)cc2n1C | i
COc1ccc(NC(=O)O[C@@H](c2ccc(OCCO)cc2)[C@@H](C)CCO)cc1 | i
CC(=O)N(C)C[C@H]1Oc2cc(C#CC(C)C)ccc2S(=O)(=O)N([C@@H](C)CO)C[C@@H]1C | i
CCCNC(=O)[C@@H]1[C@@H](CO)[C@@H]2Cn3c(ccc(C4=CCCC4)c3=O)[C@H]1N2CCC(F)(F)F | i
COc1ccc(C(=O)Nc2ccc3c(c2)C(=O)N(C)C[C@H](OC)[C@H](C)CN(C)[C@H](C)CO3)cc1 | i
Cc1ccc(S(=O)(=O)N2C[C@H](O)COC[C@@H]3O[C@H](CC(=O)NCCN4CCCCC4)CC[C@H]32)cc1 | i
O=C(Nc1ccc(F)cc1)N1C[C@H]2[C@@H](c3ccccc31)[C@@H](CO)N2Cc1ccccc1Cl | i
C[C@H]1CN([C@@H](C)CO)C(=O)Cc2cc(NC(=O)CCCCCC(=O)Nc3ccccc3N)ccc2O[C@@H]1CN(C)Cc1ccc2c(c1)OCO2 | i
CC(C)NC(=O)N1C[C@@H]2[C@H](c3ccccc31)[C@H](CO)N2C(=O)c1ccc(F)cc1 | i
C[C@@H]1CN([C@@H](C)CO)C(=O)c2cc(NC(=O)Nc3ccc(F)cc3)ccc2O[C@H]1CN(C)CC1CCCCC1 | i
CC(C)NC(=O)N(C)C[C@@H]1OCCCC[C@H](C)Oc2ccc(NC(=O)Nc3ccc4c(c3)OCO4)cc2C(=O)N([C@H](C)CO)C[C@@H]1C | i
CCC(=O)N1C[C@@H](C)[C@H](OC)CN(C)C(=O)c2cc(NC(=O)Nc3ccccc3)ccc2OC[C@H]1C | i
CC(C)CC#Cc1ccc([C@@H]2[C@H](CO)N3C(=O)CN(C(=O)Cc4cccnc4)C[C@@H]23)cc1 | i
CO[C@@H]1CN(C)C(=O)c2ccc(NC(=O)C3CC3)cc2OC[C@@H](C)N(CC2CCOCC2)C[C@H]1C | i
C[C@@H]1CN([C@@H](C)CO)C(=O)c2cc(NS(=O)(=O)c3cn(C)cn3)ccc2O[C@@H](C)CCCCO[C@H]1CN(C)C(=O)Nc1cccc2ccccc12 | i
O=C(C[C@@H]1CC[C@@H]2[C@H](COC[C@@H](O)CN2C(=O)Nc2ccc(Cl)cc2)O1)NCCc1ccncc1 | i
COc1ccc(S(=O)(=O)Nc2ccc3c(c2)CC(=O)N([C@@H](C)CO)C[C@@H](C)[C@@H](CN(C)S(=O)(=O)c2cccs2)O3)cc1 | i

In the list so far, these have an aryl methoxy group.
Compound | FGF22 binding
COc1ccc(CN(C)C[C@@H]2Oc3ccc(NC(=O)C4CCCCC4)cc3C(=O)N([C@H](C)CO)C[C@@H]2C)cc1 | i
CCC(=O)N1CC2(C1)CN(C(=O)Nc1ccccc1F)[C@H](CO)c1c2c2ccc(OC)cc2n1C | i
COc1ccc(NC(=O)O[C@@H](c2ccc(OCCO)cc2)[C@@H](C)CCO)cc1 | i
COc1ccc(C(=O)Nc2ccc3c(c2)C(=O)N(C)C[C@H](OC)[C@H](C)CN(C)[C@H](C)CO3)cc1 | i
COc1ccc(S(=O)(=O)Nc2ccc3c(c2)CC(=O)N([C@@H](C)CO)C[C@@H](C)[C@@H](CN(C)S(=O)(=O)c2cccs2)O3)cc1 | i

Next section.
Compound | FGF22 binding
COc1cccc(-c2cnc3c(c2)C(=O)N([C@@H](C)CO)C[C@H](C)[C@@H](CN(C)Cc2ccccc2)O3)c1 | i
Cn1cnc(S(=O)(=O)N[C@H]2CC[C@H](CC(=O)N3CCN(c4ccccc4)CC3)O[C@H]2CO)c1 | i
C[C@H](CO)N1C[C@H](C)[C@@H](CN(C)C(=O)c2cnccn2)Oc2ncc(C#CCN(C)C)cc2C1=O | i
Cc1noc(C)c1S(=O)(=O)Nc1ccc2c(c1)C(=O)N([C@H](C)CO)C[C@H](C)[C@H](CN(C)C(=O)Nc1ccc3c(c1)OCO3)OCCCC[C@H](C)O2 | i
C[C@@H]1CN([C@@H](C)CO)C(=O)c2cc(N(C)C)ccc2O[C@@H]1CN(C)C(=O)Nc1ccc(F)cc1 | i
COCC(=O)Nc1ccc2c(c1)C(=O)N(C)C[C@H](OC)[C@@H](C)CN(C(=O)Cc1ccccn1)[C@@H](C)CO2 | i
CO[C@@H]1CN(C)C(=O)c2cc(NS(C)(=O)=O)ccc2OC[C@@H](C)N(CC2CCCCC2)C[C@@H]1C | i
COCCN(C[C@H]1[C@H](c2ccccc2)[C@@H](CO)N1C(=O)C1CC1)C(C)=O | i
Cc1ccc(S(=O)(=O)Nc2ccc3c(c2)CC(=O)N([C@@H](C)CO)C[C@@H](C)[C@@H](CN(C)Cc2ccncc2)O3)cc1 | i
O=C(N[C@H]1CC[C@H](CCn2cc(C3(O)CCCC3)nn2)O[C@@H]1CO)C1CC1 | i
COc1ccc(-c2ccc3c(c2)[C@@H]2[C@@H](CCN2S(=O)(=O)c2ccccc2C)[C@H](CO)N3C)cc1 | i
C[C@H]1CN([C@@H](C)CO)C(=O)c2cccc(NS(=O)(=O)c3cccs3)c2O[C@H]1CN(C)S(C)(=O)=O | i
O=C(NCCc1ccccc1)[C@H]1[C@H](CO)[C@H]2Cn3c(cccc3=O)[C@@H]1N2C(=O)C1CCC1 | i
CC(C)NC(=O)Nc1cccc2c1O[C@@H](CN(C)S(C)(=O)=O)[C@@H](C)CN([C@@H](C)CO)C2=O | i
COCC(=O)N1C[C@@H](C)[C@@H](OC)CN(C)C(=O)c2cc(NC(=O)Nc3cccc(F)c3)ccc2OC[C@H]1C | i
COc1ccc(CN(C)C[C@@H]2Oc3ccc(NC(=O)Nc4ccc(F)cc4)cc3C(=O)N([C@H](C)CO)C[C@H]2C)cc1 | i
COc1ccc(S(=O)(=O)Nc2cccc3c2O[C@@H](CN(C)Cc2ccccc2)[C@@H](C)CN([C@@H](C)CO)C3=O)cc1 | i
Cc1ccc(NC(=S)Nc2ccc(-c3nnc4n3CCCCC4)cc2)cc1C | i
COc1cccc(CNC(=O)[C@H]2[C@H](CO)[C@H]3Cn4c(ccc(-c5cccnc5)c4=O)[C@@H]2N3C(C)=O)c1 | i
C[C@H](CO)N1C[C@H](C)[C@H](CN(C)Cc2ccc(C(F)(F)F)cc2)Oc2ccc(NC(=O)C3CC3)cc2C1=O | i
COc1ccccc1-c1ccc2c(c1)[C@H]1[C@H](CCN1C(=O)C1CCOCC1)[C@@H](CO)N2 | i
COc1cccc(S(=O)(=O)N2CC3(CN[C@H](CO)c4[nH]c5cc(OC)ccc5c43)C2)c1 | i
COc1ccccc1-c1ccc([C@@H]2[C@@H](C#N)N(C(=O)c3cccc(F)c3)[C@@H]2CO)cc1 | i
COc1ccc(CN(C)C[C@@H]2Oc3c(NS(=O)(=O)c4ccc(Cl)cc4)cccc3C(=O)N([C@@H](C)CO)C[C@H]2C)cc1 | i
O=C(C[C@H]1CC[C@H](NC(=O)Nc2ccccc2F)[C@@H](CO)O1)NCc1ccc(Cl)cc1 | i
CO[C@H]1CC[C@@H]2CCOc3c(C#N)cccc3C(=O)N(C)C[C@H](c3ccccc3)CC(=O)N(C)C[C@H]1O2 | i
CCCN(C)C[C@@H]1Oc2cc(Br)ccc2S(=O)(=O)N([C@H](C)CO)C[C@@H]1C | i
C[C@H](CO)N1C[C@H](C)[C@H](CN(C)C(=O)c2ccc3c(c2)OCO3)Oc2cc(-c3ccncc3)ccc2S1(=O)=O | i
C[C@@H]1CN([C@@H](C)CO)C(=O)c2cc(NS(=O)(=O)c3cccs3)ccc2O[C@@H]1CN(C)S(=O)(=O)c1ccc(Cl)cc1 | i
COc1cccc(-c2ccc3c(c2)[C@@H]2[C@@H](CCN2S(=O)(=O)c2ccccc2F)[C@@H](CO)N3C)c1 | i
COc1cccc(CN2[C@H](CO)[C@@H]3c4ccccc4N(C(=O)c4cccnc4)C[C@@H]32)c1 | i
O=C(C[C@@H]1C=C[C@@H](NC(=O)Nc2ccc(F)cc2)[C@H](CO)O1)NCc1ccccn1 | i
COCC(=O)Nc1ccc2c(c1)C(=O)N(C)C[C@@H](OC)[C@H](C)CN(C(=O)c1ccncc1)[C@H](C)CO2 | i
C[C@H](CO)N1C[C@H](C)[C@H](CN(C)Cc2ccc(Oc3ccccc3)cc2)Oc2c(NC(=O)c3ccc(-c4nccs4)cc3)cccc2C1=O | i
O=C(C[C@H]1C=C[C@@H](NC(=O)CN2CCOCC2)[C@@H](CO)O1)NC1CCC1 | i
COc1ccc(NC(=O)Nc2ccc3c(c2)CC(=O)N([C@H](C)CO)C[C@H](C)[C@@H](CN(C)Cc2ccc(C(=O)O)cc2)O3)cc1 | i
C[C@H]1CN([C@@H](C)CO)C(=O)Cc2cc(NS(=O)(=O)c3cccs3)ccc2O[C@H]1CN(C)C(=O)Nc1ccccc1 | i
CC(C)NC(=O)N(C)C[C@@H]1OCCCC[C@H](C)Oc2ccc(NS(=O)(=O)c3ccc(Cl)cc3)cc2C(=O)N([C@@H](C)CO)C[C@H]1C | i
C[C@@H]1CN([C@@H](C)CO)C(=O)c2cccc(NC(=O)Nc3ccc(C(F)(F)F)cc3)c2O[C@H]1CN(C)C(=O)NC1CCCCC1 | i
C[C@@H]1CN([C@@H](C)CO)C(=O)c2cc(NC(=O)NC3CCCCC3)ccc2O[C@@H](C)CCCCO[C@@H]1CN(C)S(=O)(=O)c1cn(C)cn1 | i
CN1C(=O)c2cc(NC(=O)NCc3ccccc3)ccc2OC[C@H]2O[C@H](CC(=O)O)CC[C@@H]21 | i
C[C@@H]1CN([C@H](C)CO)S(=O)(=O)c2ccc(-c3cncnc3)cc2O[C@@H]1CN(C)C(=O)Cc1ccncc1 | i
O=C(C1CCCC1)N1CC2(C1)[C@H](c1ccccc1)[C@@H](CO)N2C(=O)CC1CC1 | i
Cc1noc(C)c1NC(=O)N(C)C[C@@H]1Oc2ncc(C#CC3CCCCC3)cc2C(=O)N([C@@H](C)CO)C[C@H]1C | i
COc1ccc(NC(=O)Nc2ccc3c(c2)CC(=O)N([C@@H](C)CO)C[C@H](C)[C@@H](CN(C)C(=O)Nc2ccc(F)cc2)O3)cc1 | i
C[C@@H]1CCCCO[C@H](CN(C)C(=O)Nc2ccc3c(c2)OCO3)[C@@H](C)CN([C@@H](C)CO)C(=O)c2cc(NC(=O)Cc3ccccc3)ccc2O1 | i
COc1ccc(CN(C)C[C@@H]2Oc3c(NC(=O)Nc4ccc(C(F)(F)F)cc4)cccc3C(=O)N([C@H](C)CO)C[C@H]2C)cc1 | i
CCCn1cc(C(=O)Nc2ccc(Oc3cccnc3)cc2)c2ccccc21 | i
Cc1noc(C)c1S(=O)(=O)Nc1ccc2c(c1)C(=O)N([C@H](C)CO)C[C@H](C)[C@@H](CN(C)CC1CCCCC1)OCCCC[C@@H](C)O2 | i
COc1ccc(S(=O)(=O)N(C)C[C@@H]2OCCCC[C@@H](C)Oc3ccc(NS(=O)(=O)c4ccccc4)cc3C(=O)N([C@@H](C)CO)C[C@H]2C)cc1 | i

Other compounds:
Compound | FGF22 binding
O=C(CCN1CCCCC1)NCC[C@H]1CC[C@H](NC(=O)Nc2ccc(F)cc2)[C@@H](CO)O1 | i
COc1cccc(NC(=O)N[C@@H]2CC[C@H](CC(=O)Nc3ccccc3)O[C@H]2CO)c1 | i
C[C@@H]1CCCCO[C@@H](CN(C)Cc2ccccc2)[C@H](C)CN([C@@H](C)CO)C(=O)c2cc(NC(=O)C3CCCCC3)ccc2O1 | i
C[C@@H]1CCCCO[C@@H](CN(C)C(=O)Nc2ccc(C(F)(F)F)cc2)[C@H](C)CN([C@@H](C)CO)C(=O)c2cc(NC(=O)Nc3ccc4c(c3)OCO4)ccc2O1 | i
CN1C(=O)c2cc(NC(=O)C3CC3)ccc2OC[C@@H]2O[C@H](CC(=O)NCCc3ccncc3)CC[C@H]21 | i
CNC[C@H]1Oc2cc(C#CCC3CCCC3)ccc2S(=O)(=O)N([C@@H](C)CO)C[C@@H]1C | i

Quoted at random: two records from the list, in no set order.
Compound | FGF22 binding
C[C@@H]1CCCCO[C@@H](CN(C)C(=O)Nc2ccc(C(F)(F)F)cc2)[C@H](C)CN([C@@H](C)CO)C(=O)c2cc(NC(=O)Nc3ccc4c(c3)OCO4)ccc2O1 | i
CN1C(=O)c2cc(NC(=O)C3CC3)ccc2OC[C@@H]2O[C@H](CC(=O)NCCc3ccncc3)CC[C@H]21 | i
